Sa ugtP lethal = compounds lethal to S. aureus RN4220 ugtP deletion mutant | 330,000 compounds, 0.54% hits | OD600 growth, 16 h; some inactives read as strong as hits | growth inhibition, % (test concentration not listed);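 active = z-score under -3 and OD600 up to 0.15 on both plates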;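 note: plate controls were untreated wells for no effect and antibiotic for full effect; wells of about 80 µL received 100 nL stock; the first replicate is given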
PrP UTR inh = suppresses PrP 5' UTR mRNA reporter expression. cell-based PrP 5' UTR mRNA reporter, plate reader. inhibition, % (concentration not given with the values). 340,000 compounds, 0.35% hits;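 active = every replicate at 50% or more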;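 note: 0 = median of the neutral control wells; tested in H4 reporter cells; numbers are from one replicate; inactives centre near -14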
Sa RN4220 lethal = S. aureus RN4220 growth inhibition; inhibition, % (concentration not given with the values); OD600, 16 h; 330,000 compounds, 0.33% hits;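 active = z-score of -3 or lower and OD600 up to 0.18 on both plates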;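 note: plate controls were untreated cells for no effect and reference antibiotic for full effect; stock transfer was 100 nL into about 80 µL; one replicate is shown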
BJeLR lethal = BJeLR cell viability loss; BJeLR (HRASV12) viability, CellTiter-Glo ATP luminescence, 48 h; reference of the scale not given here; inhibition, % (test concentration not listed); 300,000 compounds, 0.17% hits; AID 1554;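 active = replicate mean above 50%; inconclusive = above 50% but judged a plate artefact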;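 note: 50 nL library stock added to about 25 µL; numbers are from one replicate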
Autofluor counter = flagged as autofluorescent in microsphere protease counterscreen; fluorescence intensity (concentration not given with the values); AID 624483; compound autofluorescence counterscreen, microsphere flow cytometry; stronger effect = higher value; 360,000 compounds, 3.1% hits;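 active = at least 3 SD above the mean of all compounds, about 16000 in these data; inconclusive = too few beads counted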;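 note: 100 nL of 1 mM stock went into each well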
Mtb hypoxia rep = inhibitors of hypoxia-regulated fluorescent reporter in Mycobacterium tuberculosis; M. tuberculosis hypoxia-regulated fluorescent reporter, fluorescence; fluorescence inhibition, % (concentration not given with the values); 300,000 compounds, 0.1% hits; AID 1159583;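 active = 35 to 45% if threefold the growth effect, above 45% if 1.5-fold the growth effect; inactive = the rest, general growth blockers included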;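 note: wells of about 50 µL received 100 nL stock; 0% = vehicle wells and 100% = reference inhibitor wells; whole bacteria with a GFP reporter of the hypoxia response; strong numbers were not always called active; many hits fall short of the cut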
Mtb hypoxia rep growth = recorded beside Mtb hypoxia rep, whose call it bears; growth inhibition, %; measured here: M. tuberculosis growth (absorbance);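 0% = vehicle and 100% = reference antibiotic; read after six days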
* hit, by the source's call; ? = inconclusive; . = not tested or not shown.

SMILES	Sa ugtP lethal	PrP UTR inh	Sa RN4220 lethal	BJeLR lethal	Autofluor counter	Mtb hypoxia rep	Mtb hypoxia rep growth
CSc1ccccc1NC(=O)c1ccc2c(c1)CCN2S(C)(=O)=O	5	-24	1.3	-1	3221	7	15
COC(=O)c1cn(-c2ccccc2)nc1-c1cccnc1	-6	5	6.4	-12	3973	20	8
CCOCCCNC(c1ccccc1)c1ccncc1 (stereo not given)	10	-28	3.5	-4	3765	6	9
C/C(=N\Nc1nc(-c2ccc(C)cc2C)cs1)c1cc2ccccc2oc1=O	.	10	.	-2	2511	.	.
CCCOc1ccc(/C(O)=C2/C(=O)C(=O)N(CCN(C)C)C2c2ccc(O)c(OC)c2)cc1 (stereo not given)	17	6	15	8	2344	6	4
O=C(COc1cc2oc(=O)c3c(c2cc1Cl)CCC3)NCc1ccncc1	4	-9	2.2	-10	5436	-7	-4
O=C(Nc1ccnn1C1CCN(Cc2ccc(OC(F)F)cc2)CC1)C1CCCC1	1	-18	-1.8	-1	6139	-1	4
CC1(C)CC2CC(C)(CN2C(=O)COC(=O)c2ccc(O)cc2O)C1 (stereo not given)	1	.	7.7	.	.	11	9
O=C(CNC(=O)c1ccc(S(=O)(=O)N2CCCC2)cc1)N/N=C/c1ccccc1	.	-16	.	-3	9052	.	.
COc1ccc(CN2C(=O)NC3(CCCCCC3)C2=O)cc1F	7	-6	1.2	-16	4860	2	9
Cc1nnc(NCc2ccco2)c2ccccc12	15	-9	21	-7	2625	2	-7
Cc1cccc(-n2c(C)cc(C(=O)NC3CCCCC3)c2C)c1	-11	-45	1.4	-9	2011	9	3
CC(C(=O)NC1CCCC1)N(C(=O)c1ccc(-c2ccccc2)[nH]1)c1ccccc1F (stereo not given)	-6	-9	-9.5	-5	11170	6	5
O=C(NCc1ccon1)c1ccc(OC2CCN(CCc3ccccc3)CC2)cc1	10	0	0.6	-4	2922	2	8
O=c1c2cc(N3CCOCC3)ccc2[nH]c(=S)n1Cc1ccccc1Cl	4	-60	5.2	-6	4004	3	9
O=[n+]1c2c(n([O-])c3cc(Br)ccc31)CCC2	9	-16	0.2	10	2504	3	2
CC(C)c1ccc(NC(=O)COC(=O)C2CCCCC2)cc1	6	-27	3.1	.	3207	-1	6
COc1ccc(CCNC(=O)c2cccc(S(=O)(=O)N3CCCC3)c2)cc1	7	-12	3.4	.	5276	2	9
CCC(C)(C)C1CCc2[nH]nc(C(=O)NCc3ccc(OC)cc3)c2C1 (stereo not given)	-17	-18	4.4	.	3494	4	7
COCCCNC(=O)CN(c1cccc(Cl)c1)S(C)(=O)=O	-6	-11	-1.9	-7	10027	-8	-4
CC(C)CN1CCN(Cc2ccccc2C(F)(F)F)CC1CCO (stereo not given)	0	-15	1.1	12	4654	4	1
CC(C)=C1C2CCC1C1C(=O)N(c3nc(-c4ccc(C(C)C)cc4)c(C)s3)C(=O)C21 (stereo not given)	29	-16	7.1	2	4005	.	.
COc1ccc(C(=O)NCCN2CCOCC2)cc1S(=O)(=O)Nc1ccc(C)cc1	1	-31	3.0	.	2978	9	1
Cn1c(CSCc2ccc(F)cc2)nnc1SCC(=O)N1CCN(c2ccccc2)CC1	-6	-22	-10	1	2807	7	1
O=c1c2c(-c3ccc([N+](=O)[O-])cc3)csc2nc2n1CCCCC2	1	-18	-0.3	-7	4509	12	5
CCOC(=O)C1(Cc2ccccc2Cl)CCN(C(=O)CCn2ccnc2C)CC1	7	-24	-0.5	0	4443	2	7
Cc1cc(=O)[nH]c(SCc2cccc3cccnc23)n1	9	-28	0.3	.	4247	6	9
CN1CCN(C2CCN(S(=O)(=O)c3ccc(C(C)(C)C)cc3)CC2)CC1	.	-20	.	-6	3535	.	.
CSC1=NNC(c2ccc(C(C)(C)C)cc2)=NN1	-3	-34	1.5	-5	5366	1	12
C=C(C)CN1C(=O)C(=O)N(CC(=C)C)C1=O	-1	.	2.8	0	.	7	-3

Gathered by group: the compounds so far with two or more sulfur atoms
SMILES	Sa ugtP lethal	PrP UTR inh	Sa RN4220 lethal	BJeLR lethal	Autofluor counter	Mtb hypoxia rep	Mtb hypoxia rep growth
CSc1ccccc1NC(=O)c1ccc2c(c1)CCN2S(C)(=O)=O	5	-24	1.3	-1	3221	7	15
Cn1c(CSCc2ccc(F)cc2)nnc1SCC(=O)N1CCN(c2ccccc2)CC1	-6	-22	-10	1	2807	7	1

More structures
SMILES	Sa ugtP lethal	PrP UTR inh	Sa RN4220 lethal	BJeLR lethal	Autofluor counter	Mtb hypoxia rep	Mtb hypoxia rep growth
CCOC(=O)C1=C(c2ccccc2)NC(=S)NC1c1ccc(C)c([N+](=O)[O-])c1 (stereo not given)	-14	-20	3.8	3	2487	0	2
CC(=O)n1cc(N(C(=O)CCl)c2ccc(C)cc2)c2ccccc21	27	-9	17	84*	.	23	23
Cc1ccc(C(=O)C(C)OC(=O)c2ccc(Cl)nc2)cc1 (stereo not given)	3	-17	3.6	10	6242	12	-2
Cc1ccc(-c2nc(CS(=O)CC(=O)NC(C)CCc3ccccc3)c(C)o2)cc1 (stereo not given)	7	4	-1.2	7	5520	-2	-8
CCCN1CCN(CC(=O)NCC(=O)Nc2cccc(C)c2C)CC1	10	-22	1.9	.	5232	7	-1
NC(=O)NC(=O)COC(=O)CNS(=O)(=O)c1ccc(F)c(F)c1F	-1	2	4.8	6	5513	-3	5
CC(=O)Nc1ccc(S(=O)(=O)NCCC(=O)NNC(=O)c2ccccc2O)cc1	1	-15	3.7	.	3927	7	-6
O=[N+]([O-])CC(c1ccccc1)c1c[nH]c2ccccc12 (stereo not given)	-9	.	4.7	-3	3244	7	4
CC(NC(=O)OC(C)(C)C)C(=O)NC(CCC(=O)OCc1ccccc1)C(N)=O (stereo not given)	0	-13	3.2	-9	3513	-2	-3
COc1ccc(NC(=O)Cn2nc(C(=O)O)c3ccccc3c2=O)cc1Cl	-2	-12	4.8	-4	3698	-12	0
CN1CCN(C(=O)/C(=C/c2ccc([N+](=O)[O-])cc2)NC(=O)c2ccccc2)CC1	17	-23	1.8	-1	3540	10	3
CCSC(C)CC1CC(=NO)c2c(CC)noc2C1 (stereo not given)	23	.	6.4	.	.	12	6
COc1cccc(-c2noc(C3CCCN(C(=O)Cc4ccccc4)C3)n2)c1 (stereo not given)	3	-11	1.2	3	20892*	4	1
Cc1ccccc1CC(=O)N(CCN(C)C)CC1CCCN(Cc2ccccc2F)C1 (stereo not given)	5	-14	1.4	2	4146	10	9
N#Cc1ccccc1OCCCN1CCC(Cc2ccccc2)CC1	2	-19	1.4	26	4203	1	-1
O=C(CN1C(=O)C(=O)N(Cc2ccccc2)C1=O)Nc1cc(Cl)cc(Cl)c1	-6	-14	2.9	13	3465	9	5
O=C(COC(=O)C1CCCCC1)Nc1ccc(S(=O)(=O)N2CCOCC2)cc1	6	-7	1.6	7	3810	2	4
O=C(NCC1COc2ccccc2O1)c1ccc(NC(=O)C2CCCO2)cc1 (stereo not given)	-3	-36	6.8	.	8133	4	16
O=C1NCCN(Cc2ccc(-c3ccccc3)cc2)C1CC(=O)N1CCN(CCO)CC1 (stereo not given)	1	-21	-0.3	1	4293	9	7
CCN(CC)S(=O)(=O)c1cccc(-c2nnc(SC(C)C(=O)NCCC3=CCCCC3)o2)c1 (stereo not given)	-6	-23	-2.1	0	22080*	8	14
O=C1CCCCC1=CNc1ccc(S(=O)(=O)Nc2ncccn2)cc1	11	.	7.3	.	.	21	21
CC1CCCN(c2ccc(C(=O)Nc3ccc4c(c3)OCO4)cc2[N+](=O)[O-])C1 (stereo not given)	-13	-13	-1.4	-5	2188	2	-1
Cc1ccc(S(=O)(=O)N2CCN(Cc3cccnc3)CC2)cc1	5	-10	5.9	-6	?	8	5
COc1ccc(NC2=C(C(C)=O)C(c3ccc(OC)cc3)C(C(C)=O)C(C)(O)C2)cc1 (stereo not given)	5	-21	4.9	-9	4327	15	4
COc1cc(CNc2ccc(CNc3ncn[nH]3)cc2)ccc1OCC(=O)NC(C)(C)C	.	-15	.	7	2134	.	.
CCCCCCC(=O)NCC(=O)OCC(=O)c1ccccc1	1	-11	-6.2	1	2867	.	.
CC(=O)N1c2c(cc(Br)cc2S(=O)(=O)NCC2COc3ccccc3O2)CC1C (stereo not given)	-12	-8	5.4	8	3738	7	7
COC(=O)C1SCC2C(=O)N(Cc3ccc(F)cc3)CC(=O)N21 (stereo not given)	10	-10	5.7	4	2223	13	11
C=CCc1cccc2cc(C(=O)N3CCOCC3)c(=O)oc12	3	-21	2.8	-4	3690	0	1
O=C(NC(NNc1ccc([N+](=O)[O-])cc1)(C(F)(F)F)C(F)(F)F)c1ccc(Cl)cc1	-13	-15	6.8	-15	4174	1	-2
C=CCN(c1nc(C)cc(OC)n1)S(=O)(=O)c1ccccc1	5	-8	-0.4	-5	3244	19	0
CCC1=C(OC(=O)N(CC)CC)N2C(=O)OC(=NCC(=O)OC)[C@]2(Cc2ccccc2)C2C1=CCC1C(=O)NC(=O)C12 (stereo not given in full)	4	.	6.0	.	.	13	16
C=CCn1c(SCc2c(C)noc2C)nc2sc(C)c(C)c2c1=O	35	3	-0.4	0	10799	-17	-2

Compounds above with fluorine:
SMILES	Sa ugtP lethal	PrP UTR inh	Sa RN4220 lethal	BJeLR lethal	Autofluor counter	Mtb hypoxia rep	Mtb hypoxia rep growth
O=C(Nc1ccnn1C1CCN(Cc2ccc(OC(F)F)cc2)CC1)C1CCCC1	1	-18	-1.8	-1	6139	-1	4
COc1ccc(CN2C(=O)NC3(CCCCCC3)C2=O)cc1F	7	-6	1.2	-16	4860	2	9
CC(C(=O)NC1CCCC1)N(C(=O)c1ccc(-c2ccccc2)[nH]1)c1ccccc1F (stereo not given)	-6	-9	-9.5	-5	11170	6	5
CC(C)CN1CCN(Cc2ccccc2C(F)(F)F)CC1CCO (stereo not given)	0	-15	1.1	12	4654	4	1
Cn1c(CSCc2ccc(F)cc2)nnc1SCC(=O)N1CCN(c2ccccc2)CC1	-6	-22	-10	1	2807	7	1
NC(=O)NC(=O)COC(=O)CNS(=O)(=O)c1ccc(F)c(F)c1F	-1	2	4.8	6	5513	-3	5
Cc1ccccc1CC(=O)N(CCN(C)C)CC1CCCN(Cc2ccccc2F)C1 (stereo not given)	5	-14	1.4	2	4146	10	9
COC(=O)C1SCC2C(=O)N(Cc3ccc(F)cc3)CC(=O)N21 (stereo not given)	10	-10	5.7	4	2223	13	11
O=C(NC(NNc1ccc([N+](=O)[O-])cc1)(C(F)(F)F)C(F)(F)F)c1ccc(Cl)cc1	-13	-15	6.8	-15	4174	1	-2

Compound activity (PubChem BioAssay)
